Bioassay records deposited in PubChem BioAssay by National Center for Advancing Translational Sciences (NCATS).
2A StopGo – FMDV 2A StopGo reporter, luciferase signal; human cells with a luciferase reporter of 2A StopGo recoding; control for the full effect not named in the record; Potency, µM (series often up to 57.9 µM), without a hit: at the top dose signal change, negative = less light; 410,000 compounds, 1.2% hits; active = well fitted falling curve with a large enough effect; inconclusive = small, poorly fitted or top-dose-only effect; inactive = no such curve, though single readings can be large or run the other way; tested in HEK293T cells; further: on the % scale 0 is the no-effect control and ±100 the full control effect; nearly all actives have a fitted effect of over 45% in size; luciferase light after 4 h
NS1 function inh – inhibitors of influenza NS1 protein function; S. cerevisiae slowed by influenza A NS1, growth recovery by OD600; Potency, µM (top dose mostly 46.1 µM), without a hit: at the top dose activity, positive = more growth; 270,000 compounds, 0.4% hits; AID 2326; active means well fitted rising curve with a large enough effect; inconclusive means small, poorly fitted or top-dose-only effect; inactive means no such curve, though single readings can be large or run the other way; further: nearly all actives have a fitted effect of over 50% in size
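Growth recovery, yeast-based: influenza A NS1 expressed in S. cerevisiae causes slow growth, and suppressors are detected by OD600. The parent strain without NS1 is used as positive control.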
Cruzain inh noDet – blocks cruzain activity in detergent-free assay. Potency, µM, for inactives: max response, negative = inhibition, most hits filed as inhibitors. purified cruzain, Z-FR-AMC fluorescence, no detergent. 200,000 compounds, 2.3% hits;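 further: plate controls were enzyme without inhibitor for no effect and buffer without enzyme for full effect; nearly all actives have a fitted effect of over 40% in size; top concentration of the series not given in the record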
Target sequence (P25779 123-467 limits assumed): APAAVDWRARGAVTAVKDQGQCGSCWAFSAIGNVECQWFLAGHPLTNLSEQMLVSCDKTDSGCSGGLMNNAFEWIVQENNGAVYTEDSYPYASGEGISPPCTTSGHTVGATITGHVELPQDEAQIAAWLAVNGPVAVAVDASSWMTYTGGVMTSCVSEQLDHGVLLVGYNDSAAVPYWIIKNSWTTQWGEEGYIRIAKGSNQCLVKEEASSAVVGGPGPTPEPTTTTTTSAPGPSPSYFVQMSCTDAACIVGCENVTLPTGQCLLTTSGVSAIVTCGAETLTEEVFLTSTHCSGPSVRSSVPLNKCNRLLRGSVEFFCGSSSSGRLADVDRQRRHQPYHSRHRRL
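Purified cruzain at 1.5 nM, pre-incubated 15 min with compound at room temperature in 100 mM sodium acetate pH 5.5, 5 mM DTT, 0.00005% Triton X-100. Reaction started with 2 uM Z-FR-AMC; AMC fluorescence increase over 60 s gives rate.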
RE007 growth inh – less growth of the S. pombe RE007 Vpr strain. Potency, µM (top dose mostly 92.2 µM), without a hit: top-dose activity change, negative = less growth. 360,000 compounds, 0.21% hits. S. pombe RE007 Vpr strain, BacTiter-Glo ATP luminescence, 24 h; control for the full effect not named in the record; active = well fitted falling curve with a large enough effect; inconclusive = small, poorly fitted or top-dose-only effect; inactive = no such curve, though single readings can be large or run the other way;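 further: on the % scale 0 is the no-effect control and ±100 the full control effect; nearly all actives have a fitted effect of over 50% in size; the assay follows cell death caused by Vpr and the record does not say whether a fall means rescue or toxicity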
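Fission yeast strain RE007, carrying one chromosomally integrated HIV-1 vpr copy, was seeded at OD 0.01 in PMG+AL medium with 23 nL pinned compound. After 24 h at 30 °C and 99% humidity, viability was read by BacTiter-Glo luminescence.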
Cruzain inh Det – cruzain (T. cruzi) inhibition with detergent | 200,000 compounds, 0.43% hits | P25779 | Potency, µM, inactives show max response, negative = inhibition, most hits filed as inhibitors | purified cruzain, Z-FR-AMC fluorescence, 0.01% Triton;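 further: plate controls were neutral wells for no effect and buffer without enzyme for full effect; nearly all actives have a fitted effect of over 40% in size; top concentration of the series not given in the record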
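Enzyme 1.5 nM, Z-FR-AMC 2 uM, NaOAc 100 mM pH 5.5, DTT 5 mM, Triton X-100 0.01%; 15 min RT compound preincubation; kinetic ex360/em450, 60 s delta.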
SARS PLP yeast – inhibitors of SARS-CoV papain-like protease in yeast; S. cerevisiae expressing SARS-CoV PLpro, growth rescue; control for the full effect not named in the record; Potency, µM (titrated, usually from 32.9 µM), without a hit: at the highest dose activity, positive = growth rescue; 330,000 compounds, 0.19% hits; AID 485353; active means well fitted rising curve with a large enough effect; inconclusive means small, poorly fitted or top-dose-only effect; inactive means no such curve, though single readings can be large or run the other way; further: 0% is about no effect; nearly all actives have a fitted effect of over 55% in size; growth read by luminescence after 48 h
Marburg entry inh – inhibitors of Marburg virus binding or cell entry | Marburg virus pseudotyped entry inhibition, cell reporter; control for the full effect not named in the record; about a third of the inactives were read at about 46 µM | Potency, µM (top dose mostly 37.8 µM), for the others: top-dose activity change, negative = inhibition, hits mostly inhibitors | 300,000 compounds, 1.8% hits | AID 540276; active = well fitted inhibition curve with a large enough effect; inconclusive = small, poorly fitted or top-dose-only effect, or effect the other way; inactive = flat fitted curve, though single readings scatter; tested in HEK293 cells; about a fifth of its hits are not listed in these tables; further: on the % scale 0 is the no-effect control and ±100 the full control effect; luciferase read-out
LASV entry inh – Lassa virus entry inhibition; Lassa virus pseudotype entry inhibition, cell reporter; control for the full effect not named in the record; Potency, µM (highest dose often 37.9 µM), without a hit: top-dose activity change, negative = inhibition, usual class: inhibitors; 300,000 compounds, 1.2% hits; active means well fitted inhibition curve with a large enough effect; inconclusive means small, poorly fitted or top-dose-only effect, or effect the other way; inactive means flat fitted curve, though single readings scatter; tested in HEK293 cells; further: on the % scale 0 is the no-effect control and ±100 the full control effect; nearly all actives have a fitted effect of over 50% in size; luciferase read-out
Active calls of the source: *; ? = inconclusive; / = no result given; & = joins results of further samples; [ ] = dose if it differs, or a comment. Unless noted, the call rests on the fitted dose curve; in most records, active means well fitted curve in the direction sought with a large enough effect; inconclusive means small, poorly fitted or top-dose-only effect, or another doubt; inactive means no such curve, though single readings can be large; an effect the other way counts as inactive or inconclusive. Potency means the concentration at half of the fitted maximal effect. Rows are unselected, and some 4.7% of all compounds hit somewhere here.

SMILES	2A StopGo	NS1 function inh	Cruzain inh noDet	RE007 growth inh	Cruzain inh Det	SARS PLP yeast	Marburg entry inh	LASV entry inh
COc1ccc(C2NC(=S)NC(C)=C2C(=O)c2ccccc2)cc1OC (stereo not given)	0%	9%	-16%	-1%	-5.2%	27%	18%	-8%
CCN(CC)Cc1c(NC(=O)c2ccccc2)sc(C)c1C	29%	/	/	-3%	/	1%	?	-2%[46.1 µM]
CCCCSc1nc2sc3c(c2c(=O)n1-c1ccccc1C)CC(C)(C)OC3	-28%	/	-7%	/	-0.3%	/	3%[46.1 µM]	-4%[46.1 µM]
O=C(Nc1cccnc1)c1ccc2c(c1)C(=O)N(CC1CCCO1)C2=O (stereo not given)	-5%	10%	/	6%	/	1%	/	/
COc1ccc(-c2nc(CC(=O)O)cs2)cc1	9%	-2%	-14%	5%	-0.3%	16%	-28%	15%
Cc1cccc(C(=O)N[C@H](C(=O)OCC(=O)NC2CCS(=O)(=O)C2)C(C)C)c1 (stereo not given in full)	-25%	7%	2%	-4%	-4.6%	-9%	29%	1%
Cc1ccc(SCC(=O)Nc2ccccc2N2CCOCC2)cc1	?	-39%	/	12%	/	-10%	/	/
Cc1ccc(S(=O)(=O)CCc2nnc(NC(=O)COc3cccc(C)c3)s2)cc1	/	8%	-17%	-3%	0.2%	13%	-3%	-11%
CC1C(=O)NN=C1c1ccc([N+](=O)[O-])cc1 (stereo not given)	-4%	/	/	0%	/	/	9%	7%
COCCn1nc2cc(C(=O)NCC34CC5CC(CC(C5)C3)C4)ccc2c1OC	-9%	28%	?	19%	-3.2%	1%	/	/
Cc1cc(C)c(OCC(=O)OCCNC(=O)c2cccnc2)c(C)c1	0%	3%	1%	2%	-0.7%	24%	0%	1%
Cc1ccc(S(=O)(=O)NC(=O)CSc2nc3ccccc3s2)cc1	45%[activator]	16%	-3%	9%	2.7%	-2%	7%	9%
CC(=O)c1cnc2c(-c3ccccc3)c(C)nn2c1C	3%	2%	-12%	-10%	-3.8%	-10%	1%	-1%
O=C(/C=C/c1ccc(Cl)cc1)N1CCN(c2ccccn2)CC1	-12%	-10%	19%	2%	0.7%	20%	?	-2%
CCOc1ccc(NC(=O)CSc2nc(-c3cccs3)cc(C(F)(F)F)n2)c([N+](=O)[O-])c1	-3%	6%	?	69%	-3.2%	13%	?	-10%
CC(C)(C)NCC(O)COc1c(F)cc(Br)cc1F (stereo not given)	9%	1%	11%	3%	-4.4%	0%	?	0%
O=C(c1cccc(S(=O)(=O)N2CCc3ccccc3C2)c1)N1CCN(c2ccccc2)CC1	?	?	-9%	13%	-2.8%	16%	?	16µM*
COc1ccc(C2=CSC3=NCCN23)cc1[N+](=O)[O-]	20%	4%	/	-5%	/	-1%	-1%	-22%
O=C(CN1CCC(NC(=O)Nc2ccc(F)cc2)CC1)Nc1ccccc1[N+](=O)[O-]	-15%	7%	/	2%	/	0%	?	1%[46.1 µM]
Cc1nc(SCc2ccc([N+](=O)[O-])cc2)n[nH]1	25%	-4%	/	12%	/	-4%	?	-3%[46.1 µM]
COC(=O)c1cc(OC)c(OC)cc1NC(=O)CSc1ccc(C)cc1	-17%	3%	?	8%	-5.3%	6%	-14%	-22%
COc1ccc(S(=O)(=O)CC(=O)Nc2ccccc2Cl)cc1	8%	1%	/	5%	/	0%	-14%[46.1 µM]	?
CN=c1scc(-c2ccc(F)cc2)n1/N=C/c1ccc(O)c(O)c1	1.3µM*	/	/	-5%	/	-25%	18µM*	?
Cn1cnnc1SCC(=O)c1cccc([N+](=O)[O-])c1	-4%	6%	-14%	/	-4.1%	-3%	6%	-7%
CC(=C1C(=O)c2ccccc2C1=O)N1CCc2ccccc2C1	/	-2%	-12%	-3%	1.6%	-6%	20%	-3%

Next results.
SMILES	2A StopGo	NS1 function inh	Cruzain inh noDet	RE007 growth inh	Cruzain inh Det	SARS PLP yeast	Marburg entry inh	LASV entry inh
COc1cccc(OCc2nnc3n2N=C(c2ccccc2)C(CC(=O)O)S3)c1 (stereo not given)	3%	9%	/	-3%	/	4%	3%	1%
CC1CCN(CC(=O)N2CCN(c3ccccc3)CC2)CC1	-7%	18%	/	1%	/	5%	7%[46.1 µM]	5%[46.1 µM]
CCN(CC)C(=O)Cn1cc(C(=O)C(=O)NCc2cccnc2)c2ccccc21	-8%	-1%	/	15%	/	-1%	/	/
COc1ccc(C(=O)CSc2nc(C)cc(C)c2C(=O)Nc2ccccc2C)cc1	-25%	/	-8%	/	-5.5%	/	2%[46.1 µM]	-5%[46.1 µM]
COc1cccc(CNC(=O)C(C)n2ncn3cccc3c2=O)c1OC (stereo not given)	-11%	/	?	/	-23%	/	5%[46.1 µM]	-13%[46.1 µM]
CN(Cc1ccccc1)c1nc2c(c(=O)[nH]c(=O)n2C)n1CCCSc1ncccn1	-15%	-8%	-8%	18%	0.4%	-2%	-21%	?
COc1cc(NC(=O)C2CCN(S(=O)(=O)c3ccc4c(c3)CC(C)N4C(C)=O)CC2)cc(OC)c1OC (stereo not given)	-28%	-16%	/	-1%	/	0%	/	/
CSCC[C@H](NC(=O)OC(C)(C)C)c1nnc(SCc2ccccc2)o1	0%	-41%	-5%	-13%	-2.9%	-4%	?	?
CCN1CCCC1CNC(=O)C(=O)NC1CC1 (stereo not given)	11%	-3%	/	16%	/	0%	?	6%
C=CCN(C(=O)c1ccccc1)C1CCS(=O)(=O)C1 (stereo not given)	-10%	2%	/	4%	/	-1%	2%[46.1 µM]	0%[46.1 µM]
CN(Cc1ccccc1)S(=O)(=O)c1ccc2[nH]c(=O)oc2c1	16%	11%	/	9%	/	5%	/	/
CS(=O)(=O)N(CC(=O)N1CCN(Cc2ccccc2)CC1)c1ccccc1F	-20%	-4%	/	6%	/	2%	17%[46.1 µM]	11%[46.1 µM]
CC(C)c1nc(SCC(=O)N2CC(=O)Nc3ccccc32)c2ccccc2n1	16µM*	-4%	/	-1%	/	-1%	?	?
CSc1ccc(CN2C(=O)NC3(CCCCC3)C2=O)cc1	?	-8%	/	?	/	-1%	-15%[46.1 µM]	-27%
CCOC(=O)C1CCN(C(=O)c2cc3c(=O)n4ccccc4nc3n2C)CC1	-10%	1%	/	-4%	/	-1%	21%[46.1 µM]	-12%
COc1ccc([N+](=O)[O-])cc1N(CC(O)CN1CCCCC1)S(=O)(=O)c1ccc(C)cc1 (stereo not given)	-4%	7%	/	-23%	/	-1%	?	-20%
COc1ccc(C(=O)Nc2cc3c4c(c2)C(C)C(=O)N4CCC3)cc1OC (stereo not given)	4%	/	/	-10%	/	0%	9%	-12%
CCOC(=O)c1c(C)c(C(=O)N2CCC3(CC2)OCCO3)c(C)n1CC	24%	1%	4%	12%	6.3%	5%	25%	-1%
O=C1CN(C(=O)COC(=O)Cc2ccccc2)c2ccccc2N1	-6%	/	/	4%	/	0%	-11%	2%
Cc1ncc([N+](=O)[O-])n1CCOC(=O)NC(NCc1ccccc1Cl)C(Cl)(Cl)Cl (stereo not given)	-17%	-15%	-9%	-23%	-11%	-48%	?	?
O=C(c1cccs1)c1coc2ccc(O)c(CN3CCOCC3)c12	?	-9%	-1%	-20%	-3.2%	4%	?	26%
N#Cc1ccccc1NC(=O)Nc1ccc(Cl)cc1	6%	-47%	8%	-4%	-7.5%	1%	?	6%
CN(Cc1c(F)cccc1Cl)C(=O)c1ccc(NS(=O)(=O)c2ccc3[nH]c(=O)[nH]c3c2)cc1	24%	/	/	-6%	/	1%	?	6%
CCN(CC)C1CCN(C(=O)CCn2nnnc2CN2CCOCC2)C1 (stereo not given)	-21%	1%	/	-3%	/	?	11%	3%
CCCCn1nc2cc(C(=O)NCc3ccc4c(c3)OCO4)ccc2c1OCC	9%	6%	5%	46%	-6.5%	-4%	/	/

(cont.)
SMILES	2A StopGo	NS1 function inh	Cruzain inh noDet	RE007 growth inh	Cruzain inh Det	SARS PLP yeast	Marburg entry inh	LASV entry inh
CCN(CC)CCNC(=O)C1c2ccccc2Oc2ccccc21	-22%	4%	/	2%	/	0%	/	/
O=c1c(O)cccc2cc(O)c(O)c(O)c12	12%&-22%	-41%	-13%	?	-19%	-1%	/	/
CCN1CCN(C(=S)c2ccc(OCC(=O)Nc3ccc(OC)cc3)cc2)CC1	-15%	/	/	1%	/	/	-22%	-2%
O=C(CSc1nc(-c2ccccc2)cs1)Nc1ccccc1[N+](=O)[O-]	-2%	-4%	-3%	15%	-6.3%	-12%	?	13%
Fc1ccccc1Cc1noc(CN2CCCC(CN3CCOCC3)C2)n1 (stereo not given)	1%	-3%	/	-6%	/	1%	?	22%[46.1 µM]
C=CCNC(=O)c1cnc(-c2ccccc2)nc1-c1ccccc1	10%	-4%	/	-14%	/	3%	9%	7%
CCC1(C)CC(c2csc(N)n2)CCO1 (stereo not given)	10%	0%	-4%	5%	3.5%	/	-4%	16%
CC(=O)Nc1ccc(/C(C)=N/NC(=O)C2CC2c2ccccc2)cc1 (stereo not given)	-11%	23%	-21%	-7%	-1.6%	-4%	3%	0.018µM*
CCCc1n[nH]c(=S)n1Cc1ccco1	-8%	3%	/	10%	/	0%	/	/
COc1ccc(-c2cc(C(=O)N3CC4(C)CC3CC(C)(C)C4)no2)cc1OC (stereo not given)	26%	-52%	?	-18%	-8.6%	5%	18%	-4%
C#CCNC(=O)c1cccn1-c1ncc(C(F)(F)F)cc1Cl	-19%	/	/	3%	/	6%	17%[46.1 µM]	12%[46.1 µM]
COc1ccc(Cc2nnc(Nc3ccccc3OC)[nH]c2=O)cc1	2%	/	/	18%	/	6%	7%[46.1 µM]	3%
O=C(O)c1ccc(NS(=O)(=O)c2ccc3c(c2)OCCCO3)cc1	0%	/	/	7%	/	2%	2%[46.1 µM]	3%[46.1 µM]

Profiles, looked up by structure. Order of values: 2A StopGo | NS1 function inh | Cruzain inh noDet | RE007 growth inh | Cruzain inh Det | SARS PLP yeast | Marburg entry inh | LASV entry inh
CCCc1n[nH]c(=S)n1Cc1ccco1 as listed: -8% | 3% | / | 10% | / | 0% | / | /
CCN(CC)CCNC(=O)C1c2ccccc2Oc2ccccc21 as listed: -22% | 4% | / | 2% | / | 0% | / | /
